Screening results from PubChem.
Sa helicase inh = inhibitors of S. aureus replicative helicase, primary screen, biochemical, fluorescence unwinding readout | AID 485395, 2010 | hit rate 0.05% among 120,000 | inhibition, %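 (tested at about 80 µM)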 | purified S. aureus helicase, fluorescence unwinding assay; about half of the hits fall short of the stated cut;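 active = both duplicates at 50% or more, or one of them with a favoured structure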;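 also: 0% = mean of negative control wells and 100% = mean of positive control wells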
MgrA-DNA mod = S. aureus MgrA activity modulators, primary screen, biochemical, S. aureus Newman, fluorescence polarization | MgrA-DNA binding | inhibition, %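 (about 10 µg/mL by stock and volumes)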 | hit rate 0.13% among 84,000;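 active = above 50% in either of two replicates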;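 also: 0% = protein plus DNA without compound and 100% = DNA alone without protein; higher means less MgrA bound to DNA so lower polarization; one replicate is shown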
An asterisk follows results filed as active; / = not tested or not shown; & = joins results of further samples.

Sa helicase inh | MgrA-DNA mod | canonical_smiles
-22 | / | NC(=O)c1oc2ccccc2c1NC(=O)C1CC1
/ | 1.6 | Cc1c(-c2ccnn2S(C)(=O)=O)sc2ccc(Cl)cc12
-13 | 0.0 | CC1=CC(C)C(CN2CCOC2C(C)C)C(C)C1 (configuration not stated)
/ | -1.7 | CC(C)(C)n1cnnc1SCc1c(F)cccc1Cl
11 | / | CCOC(=O)c1c(N(C(C)=O)C(C)=O)sc(=S)n1-c1ccccc1
-15 | / | CC1CCN(C(=O)C2CC(c3ccccc3F)=NO2)CC1 (configuration not stated)
9 | / | CCNS(=O)(=O)c1csc(C(N)=O)c1
19 | 0.9 | CCn1cc(CN(C(=O)Nc2cccc(OC)c2)C2CCCCC2)c2ccccc21
9 | / | CC1(C)CC(=O)C(C=NCc2ccc3c(c2)OCO3)=C(O)C1
9 | / | Cc1ccc2c(CC(=O)NNc3c(F)c(F)c(F)c(F)c3F)coc2c1
3 | 1.2 | CCCCn1nnc(NC(=O)COc2ccc(Cl)c(C)c2)n1
6 | 0.4 | CCOC(=O)C1C(=O)NC(N2CCc3ccccc32)=NC1c1ccccc1 (configuration not stated)
-13 | / | Cc1ccc(C)c(S(N)(=O)=O)c1
9 | / | O=C(O)CCNc1ccccc1C(=O)O
11 | 3.7 | Cc1cc2[nH]c(=O)c(=O)[nH]c2cc1S(=O)(=O)N1CCc2ccccc2C1
/ | 1.6 | FC(F)(F)c1cc(Oc2ccc(Cl)cc2)c2cc(Cl)ccc2n1
9 | 1.2 | O=C(NCc1ccco1)C1CCC(C(=O)NCc2ccco2)CC1 (configuration not stated)
/ | -1.4 | CNC(=S)N/N=C(\C)c1ccc(C)cc1
0 | 3.8 | COc1ccc(N(CCC#N)S(=O)(=O)c2cccc3nsnc23)cc1
10 | / | Cc1cc(C)c(OCC(O)Cn2cc(/C=N/O)c3ccccc32)c(C)c1 (configuration not stated)

Three compounds from above, ordered by number of heavy atoms, smallest number first.
Sa helicase inh | MgrA-DNA mod | canonical_smiles
9 | / | O=C(O)CCNc1ccccc1C(=O)O
/ | -1.7 | CC(C)(C)n1cnnc1SCc1c(F)cccc1Cl
11 | / | CCOC(=O)c1c(N(C(C)=O)C(C)=O)sc(=S)n1-c1ccccc1

(further entries)
Sa helicase inh | MgrA-DNA mod | canonical_smiles
-4 | / | CCCCn1c(SC(C)C(N)=O)nc2cc(S(N)(=O)=O)ccc21 (configuration not stated)
-15 | / | Cc1ccc(C(=O)O)c(C(=O)Nc2nccs2)c1
3 | / | Cc1ccc(NC(=O)CN2C(=O)CSCC2=O)cc1
/ | -0.3 | CC(=O)Nc1ccc(NC(=O)c2ccco2)cc1
-4 | / | CN(CC(=O)NCc1ccco1)S(=O)(=O)c1ccc2c(c1)c(=O)n(C)c(=O)n2C
-4 | 0.1 | COC(=O)c1cc(S(=O)(=O)Nc2ccc(OC)cc2)c[nH]1
5 | -4.8 | Cc1ccc(C(=O)NCCc2ccccc2)cc1
-15 | / | CC1=C(C(=O)Nc2ccccc2C)C(c2ccco2)C(C#N)=C(SCC(=O)c2ccccc2)N1 (configuration not stated)
-9 | / | Cn1nnnc1SCC(=O)N1CCNC1=O
/ | -1.7 | Cc1c(Cl)cccc1NC(=S)Nc1ccc(Cl)cc1C(=O)c1ccccc1
-10 | / | O=C1CCC(C(=O)OCC(=O)Nc2cccc(Oc3ccccc3)c2)=NN1
4 | 3.5 | CCC(CC)C(=O)Nc1nnc(C(C)(C)C)s1
/ | 1.3 | O=C(Nc1ccc2nc(NC(=O)c3ccccc3)sc2c1)c1ccccc1
/ | -0.9 | COC(=O)/C=C1/NCCNC1=O
29 | / | Cc1c(C)n(CC(O)CN2CCCCC2C)c2ccccc12 (configuration not stated)
-7 | 1.2 | O=C(Cc1c[nH]c2ccccc12)NCC1CCN(c2ccc(S(=O)(=O)N3CCCC3)cc2)CC1
29 | / | O=C(Nc1ccc2c(c1)OCCO2)c1ccc(Br)o1
/ | -0.9 | O=S(=O)(c1cc(Cl)sc1Cl)N1CCOCC1
-14 | 0.9 | CCOc1cc(-c2nc(-c3cc4cc(C)ccc4nc3OC)no2)cc(OCC)c1OCC
7 | 3.0 | O=C1NCC(O)=C1C=Nc1ccccc1O
/ | -0.6 | CC(C)(Oc1ccc(Cl)cc1)C(N)=O
2 | / | CCOc1ccc(S(=O)(=O)N2CCN(C(=O)CNC(=O)c3cccs3)CC2)cc1
12 | 5.0 | COc1ccc(S(=O)(=O)N2CCC(C(=O)Nc3ccccc3C(F)(F)F)CC2)cc1C
14 | 3.2 | CC(N)c1ccccc1OC(F)F (configuration not stated)
-6 | / | COc1cccc(CNC(=O)[C@@H](NS(=O)(=O)c2ccccc2)C(C)C)c1
-8 | / | O=C(CN1C(=O)/C(=C/c2cccc(Br)c2)SC1=S)Nc1ccccc1C(F)(F)F
-16 | / | COc1ccc2oc(C(=O)OCC(=O)c3ccc(F)cc3)c(C)c2c1
17 | / | CCn1c(C)c(CCC(=O)N2CCCCCC2)c(=O)n2nc(-c3ccccc3OC)cc12
-6 | / | CCCC(=O)Nc1c2c(nn1-c1ccccc1)CSC2
/ | 3.0 | Cc1nn(-c2ccccc2)nc1C(N)=O
/ | 18 | O=C(O)c1cccc2cccc(Br)c12
-4 | / | CNC1(C#N)CCCCC1
-6 | / | COC(=O)c1ccc(COC(=O)c2cccnc2N)o1
1 | / | CC1=CC(=C(C#N)C#N)C=C(C)N1c1ccc(I)cc1
/ | -0.2 | Cc1onc(-c2ccccc2Cl)c1C(=O)NC(=S)Nc1ccc(C(C)(C)C)cc1
29 | / | Cc1cc(C)nc(SCC(=O)OCc2cccc(S(=O)(=O)N3CCOCC3)c2)n1
8 | -0.5 | O=C(Cn1c(C(=O)OCCO)cc2ccccc21)c1ccccc1
-13 | / | CCOc1ccc(C(=O)NCC(=O)NCC2CCCCC2)cc1OCC
7 | -1.3 | COC(=O)c1ccc(-c2nc(-c3cc(C)nc4ccccc34)no2)cc1
21 | 2.0 | CN1C(=O)/C(=C\c2ccccc2C(F)(F)F)SC1=S
24 | / | Oc1cccc(-c2nc3ccccc3[nH]2)c1
8 | 0.1 | O=C(c1cccc(COc2ccccc2Cl)c1)N1CCCCC1
20 | -2.2 | Cc1cccc(OC(=O)Nc2ccccc2)c1
35 | / | Cc1ccn2nc(C(=O)OCc3cc(=O)oc4cc5c(cc34)CCC5)nc2n1
8 | 1.6 | CN(C)c1cccc(C(=O)N2CCOCC2)c1
16 | -1.4 | CCc1cccc(OCC(=O)O)c1
-1 | / | Cc1ccccc1-n1nnnc1SCC(=O)N(Cc1cccs1)c1ccc2c(c1)OCCO2
-8 | / | CN(Cc1ccccc1)Cn1c(=S)oc2ccc(Cl)cc21
-28 | / | COc1ccc(NCN2C(=O)c3ccccc3C2=O)cc1
8 | / | N#Cc1ccc(NC(=O)Cc2ccc3c(c2)OCCO3)cc1
6 | -1.8 | CC(=O)OC1CC(C)N(C(=O)c2ccccc2)c2ccc(C)cc21 (configuration not stated)
-16 | / | Cc1ccc(NC(=O)/C(C#N)=C/c2ccc[nH]2)c(C)c1
11&0 | -6.4 | CCOC(=O)C1=C(C)NC(=O)NC1C (configuration not stated)
3 | -0.7 | O=C(Nc1cccc(-c2nc3ccccc3[nH]2)c1)c1cccc(NC(=O)c2ccco2)c1
2 | / | CN(Cc1cccnc1)C(=O)CNS(=O)(=O)c1cccc(C(F)(F)F)c1
6 | 8.7 | O=S(=O)(Nc1ccc(-c2nc3cccnc3s2)cc1)c1ccccc1
/ | 0.8 | O=C1/C(=C/c2ccc(C(F)(F)F)cc2)Cc2ccccc21
/ | -2.1 | CS(=O)(=NS(=O)(=O)c1ccc(-c2ccccn2)s1)c1ccccc1 (configuration not stated)
11 | -1.4 | O=S(=O)(c1ccccc1)c1nc(-c2ccco2)oc1N1CCCCC1
22 | / | CC1CC(C)CN(C(=O)c2ccc3c(c2)N(Cc2ccc(F)cc2)C(=O)c2ccccc2S3=O)C1 (configuration not stated)

2 compounds drawn at random from the list so far:
Sa helicase inh | MgrA-DNA mod | canonical_smiles
35 | / | Cc1ccn2nc(C(=O)OCc3cc(=O)oc4cc5c(cc34)CCC5)nc2n1
8 | 1.6 | CN(C)c1cccc(C(=O)N2CCOCC2)c1

(list continues)
Sa helicase inh | MgrA-DNA mod | canonical_smiles
5 | / | Cc1ccc(CSc2ncnc3c2nnn3Cc2ccccc2)cc1
/ | -2.6 | O=C(c1ccccc1F)N1CCN(c2ccc([N+](=O)[O-])cn2)CC1
-15 | 1.3 | CC1(C)CC(=O)C(C(=S)Nc2ccccc2)C(=O)C1
19 | 6.9 | Cc1ccc(NC(=O)CC2S/C(=N\N=C\c3cccc(O)c3)NC2=O)cc1Cl (configuration not stated)
23 | / | COc1cccc2sc(Nc3ccc(F)cc3)nc12
6 | / | CC1CCCN(C(=O)COC(=O)c2ccc(N(C)C)cc2)C1 (configuration not stated)
8 | 1.4 | COc1ccc(O)c(C=NCC(C)N=Cc2cc(OC)ccc2O)c1 (configuration not stated)
-13 | / | O=c1c(-c2nc3ccccc3s2)coc2cc(O)ccc12
40 | / | Cc1ccc(S(=O)(=O)NC2(C(=O)O)CCCCC2)cc1
4 | 1.1 | NC(=Nc1ccc(Br)cc1)c1ccccc1
-10 | / | CC(=O)N(C)Cc1nc2ccccc2n1Cc1ccccc1
7 | / | CN1CCN(S(=O)(=O)c2cccc(C(=O)C(C#N)c3ccccn3)c2)CC1 (configuration not stated)
-26 | 3.0 | O=C1Cc2ccccc2C(=O)N1c1ccccc1
-4 | 1.4 | O=C(Nc1ccccc1)NC1CC2CCC(C1)N2Cc1nnnn1Cc1ccc2c(c1)OCO2 (configuration not stated)
-5 | / | Cc1sc2nc(C(C)Sc3nnc(-c4ccc5c(c4)OCO5)o3)[nH]c(=O)c2c1C (configuration not stated)
8 | / | CCC(=O)N(c1ccccc1)C1C=CS(=O)(=O)C1 (configuration not stated)
-7 | 0.2 | CC1CCc2cc(F)ccc2N1S(=O)(=O)c1ccc(NC(=O)COCC(=O)O)cc1 (configuration not stated)
13 | / | O=C(CC(=O)NCc1ccccc1)NCc1ccccc1
8 | 0.5 | C=CCN(C(=O)c1ccc2c(c1)nnn2C)c1ccccc1
-94 | / | N#CCSc1ccccc1NC(=O)CN1CCc2sccc2C1c1cccs1 (configuration not stated)

Part of the list above, as labelled records:
smiles: COc1cccc2sc(Nc3ccc(F)cc3)nc12
  Sa helicase inh: 23; MgrA-DNA mod: /
smiles: CC1CCCN(C(=O)COC(=O)c2ccc(N(C)C)cc2)C1 (configuration not stated)
  Sa helicase inh: 6; MgrA-DNA mod: /
smiles: COc1ccc(O)c(C=NCC(C)N=Cc2cc(OC)ccc2O)c1 (configuration not stated)
  Sa helicase inh: 8; MgrA-DNA mod: 1.4
smiles: O=c1c(-c2nc3ccccc3s2)coc2cc(O)ccc12
  Sa helicase inh: -13; MgrA-DNA mod: /

(further entries)
Sa helicase inh | MgrA-DNA mod | canonical_smiles
-13 | / | C/C=C/c1c(F)c(F)c(Oc2ccccc2N)c(F)c1F
/ | -1.8 | CC1(C)c2ccccc2-n2c1cc(O)c(Cc1ccccc1)c2=O
/ | -0.7 | COC(=O)c1ccccc1S(=O)(=O)/C(C#N)=C/Nc1nc(C)cc(C)n1
-4 | / | CN(C)CCn1cc(C(=O)c2cc(F)ccc2O)cc1-c1nc2ccccc2c(=O)[nH]1
-5 | 4.2 | OC1CCC(C2CC3CCC2C3)CC1O (configuration not stated)
-4 | 0.4 | CCOC(=O)c1c(C)sc2c1Nc1cc(Cl)ccc1S2
8 | / | CN(C)C(CN)Cc1ccccc1 (configuration not stated)
9 | / | Cc1ccc2c(c1)C(c1ccc(F)cc1)N(C(=O)c1ccc(Br)o1)CC(=O)N2 (configuration not stated)
3 | / | CC(C)CCSc1nc2ccccc2n1CN1CCN(S(=O)(=O)c2ccc(Cl)cc2)CC1
/ | -1.3 | O=C1c2ccccc2S(=O)(=O)N1CC(O)COc1ccc2ccccc2c1 (configuration not stated)
-10 | 4.0 | Cc1cc(N)n(-c2ccccc2C(=O)O)n1
-1 | 12 | Oc1ccc(C2(c3ccc(O)cc3)CCCC2)cc1
16 | / | CCC(CC)c1nn2cc(-c3ccc(C)c(C)c3)nc2s1
6 | / | CC(C)(C)C(O)CN1CCCC1 (configuration not stated)
-7 | / | OC(CSc1nc(-c2ccccc2)ns1)C(F)(F)F (configuration not stated)
11 | 6.8 | NC(=S)N=Nc1c(O)[nH]c2ccccc12
-2 | / | N#CCCSc1nnc(-c2ccc(Cl)cc2)o1
-10 | 1.1 | COc1ccc2oc(=O)c(C(=O)OCCN3CCN(S(=O)(=O)c4ccccc4)CC3)cc2c1
-12 | / | CCOC(=O)c1c(C)[nH]c(C(=O)COc2ccccc2OCC)c1C
-4 | / | COc1ccc(C)cc1-n1nnnc1SC(C)C(=O)NCc1ccco1 (configuration not stated)
6 | 8.0 | On1c2c(c3c4nonc4ccc31)CCCC2
2 | 0.0 | Cc1ccc2c(c1)C(O)(C(=O)NC(N)=O)C(=O)N2 (configuration not stated)
-15 | / | COC(=O)c1cc(S(=O)(=O)Nc2ccc(C(C)C)cc2)c[nH]1
14 | 0.1 | COc1ccc2cc3cc(C(=O)N(C)c4cccc(C(F)(F)F)c4)oc3nc2c1
-11 | / | CNCCNS(=O)(=O)c1ccc(N2C(=O)CC3(CCCC3)C2=O)c(Cl)c1
/ | -0.3 | Clc1ccc(Cn2cccn2)cn1
/ | 2.1 | Cc1ccc2nc(-c3ccc(NC(=O)c4sc5ccccc5c4Cl)cc3)sc2c1
6 | 56* | CCOc1ccc(NC2=CC(=O)C=CC2=O)cc1
-4 | / | NC(=O)c1cnn(Cc2ccccc2)c1N
-27 | / | CCOC(=O)c1cccc(Nc2ncnc3ccccc23)c1
-3 | / | CCC1CCCCN1CC(O)COCc1cccc(OC)c1 (configuration not stated)

This is a subset (hit frequency here may not be typical).
